# Bioassay records deposited in PubChem BioAssay by Broad Institute.
# rRNA inh HTS – reduced GFP signal of wild-type E. coli, primary screen, bacterial rRNA inhibitor project, GFP/RFP fluorescence, OD600, single point; GFP signal change (wild-type ribosome), % (concentration not given with the values); 350,000 compounds, 1.6% hits; E. coli WT GFP vs humanized-ribosome RFP mutants, 24 h; stronger effect = lower value; DMSO median 0, no signal -100; AID 720706, 2013;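 active = significant combined selectivity score with lowered wild-type GFP, culture density cut under 30%, mutant RFP and density less affected; inactive = any of these conditions unmet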; note: one replicate is shown; some compounds called inactive have numbers as strong as hits
# Beta cell apopt – inhibitors of cytokine-induced beta cell apoptosis, primary screen, luminescence. 300,000 compounds, 0.8% hits. INS-1E cytokine-induced death, ATP luminescence, 48 h; percent of positive-control rescue, neutral wells zero. AID 435005, 2010. protection from apoptosis, % (concentration not given with the values);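 active = all replicates at 75% or more, or half of them and the mean; inconclusive = half reach 75% but not the mean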;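 note: 0% = cytokine-treated negative control wells and 100% = positive control rescue; higher means more ATP so stronger rescue from cytokine killing; wells of about 40 µL received 100 nL stock; the first replicate is given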
# AF4-AF9 inh – inhibitors of AF4 peptide binding to AF9, primary screen, biochemical, AlphaScreen, biotin-AF4 peptide, FLAG-AF9, single point; Protein AF-9 (Homo sapiens), P42568; inhibition, % at 10 µM; 350,000 compounds, 0.47% hits; AID 651704, 2012;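 active = every replicate reaching a set inhibition limit, whatever the replicate mean, cut at about 25% in these data; inconclusive = mean inhibition reaches that limit but some replicates miss it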;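 note: 0% = plate neutral control median and 100% = total signal loss; the record names both 10 and 1 µM as test concentration; the first replicate is given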
# Target sequence (P42568 whole entry, looked up): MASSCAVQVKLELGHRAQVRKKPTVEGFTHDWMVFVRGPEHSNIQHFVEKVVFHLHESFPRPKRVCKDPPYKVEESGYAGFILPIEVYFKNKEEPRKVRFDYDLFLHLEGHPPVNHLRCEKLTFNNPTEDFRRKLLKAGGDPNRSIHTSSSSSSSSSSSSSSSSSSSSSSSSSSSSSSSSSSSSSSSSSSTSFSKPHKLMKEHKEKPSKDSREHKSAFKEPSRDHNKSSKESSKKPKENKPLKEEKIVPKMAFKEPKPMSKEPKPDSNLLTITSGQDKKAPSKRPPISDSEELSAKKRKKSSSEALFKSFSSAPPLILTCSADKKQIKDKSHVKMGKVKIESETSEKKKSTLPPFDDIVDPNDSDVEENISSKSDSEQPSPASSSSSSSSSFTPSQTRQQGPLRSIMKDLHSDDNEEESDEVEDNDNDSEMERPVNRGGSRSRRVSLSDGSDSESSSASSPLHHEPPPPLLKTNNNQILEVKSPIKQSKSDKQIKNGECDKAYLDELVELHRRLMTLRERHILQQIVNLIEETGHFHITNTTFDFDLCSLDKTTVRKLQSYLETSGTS
# ALR inh – inhibitors of human ALR sulfhydryl oxidase, primary screen, biochemical, H2O2 detection, HRP-luminol luminescence, single point; FAD-linked sulfhydryl oxidase ALR (Homo sapiens), P55789; 290,000 compounds, 3.8% hits; inhibition, % (no concentration beside the values); purified ALR, DTT oxidation;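 active = mean and each replicate at 75% or more; inconclusive = only one of the two met; inactive = neither met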;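 note: stock transfer was 7.5 nL into about 7.5 µL; 0% = neutral wells and 100% = wells with inactivated enzyme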
# Target sequence (P55789 whole entry, looked up): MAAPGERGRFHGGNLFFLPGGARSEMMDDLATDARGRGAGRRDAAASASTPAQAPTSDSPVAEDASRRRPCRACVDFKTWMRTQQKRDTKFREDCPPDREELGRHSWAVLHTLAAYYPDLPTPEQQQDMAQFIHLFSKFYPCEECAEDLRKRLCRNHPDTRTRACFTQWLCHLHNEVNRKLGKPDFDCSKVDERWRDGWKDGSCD
# T cruzi inh – inhibitors of intracellular T. cruzi growth, primary screen, luminescence, NIH3T3 host cells; T. cruzi beta-gal in NIH3T3, 90 h; inhibition, % (test concentration not listed); 300,000 compounds, 1.4% hits;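 active = mean inhibition across valid replicates above about 55%, limit read from the data; inconclusive = mean below that limit but half or more replicates reach it; inactive = mean below it, under half of replicates reach it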;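 note: signal also drops with host cell toxicity which is not excluded here; 0% = plate median of DMSO wells and 100% = zero luminescence signal; higher percent means less beta-gal luminescence so fewer parasites; stock transfer was 50 nL into about 50 µL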
# RanGTP-Imp inh – inhibitors of RanGTP-importin-beta interaction, primary screen, biochemical, FRET, CFP-Ran, YFP-importin-beta, homogeneous | Ran GTPase (GTP-bound) - importin-beta complex | inhibition, % (test concentration not listed) | 300,000 compounds, 1.1% hits | cell-free CFP-Ran/YFP-importin-beta FRET ratio;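 active = most replicates above 15%; inconclusive = exactly half above 15%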;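 note: 0% = DMSO wells and 100% = Ran loaded with GDP instead of GTP; wells of about 40 µL received 100 nL stock; the first replicate is given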
# Calb FLC – C. albicans growth inhibition with fluconazole, primary screen, CaCi-2 strain, Alamar Blue fluorescence; C. albicans CaCi-2 (fluconazole-resistant clinical isolate) + fluconazole, 48 h; growth inhibition, % (no concentration beside the values); 300,000 compounds, 0.57% hits;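 active = most replicates above 75%; inconclusive = exactly half above 75%; inactive = most below 75%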;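 note: all wells also contain fluconazole at 8 µg/ml as a sub-toxic cotreatment; 0% = median of DMSO wells and 100% = median of geldanamycin control wells; wells of about 8 µL received 7.5 nL stock; the first replicate is given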
# FGF22 binding – binders of human FGF22 protein, primary screen, FGF22 synaptogenesis inhibitor project, biophysical, thermal shift, single point; calls only at 9.99 µM; 340,000 compounds, 1.5% hits; AID 651658, 2012; Fibroblast growth factor 22 (Homo sapiens), Q9HCT0; recombinant FGF22 thermal shift, SYPRO orange fluorescence; percent of sucrose octasulfate shift, DMSO zero;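 active = melting point raised past a set limit in the mean and every replicate; inconclusive = no clear call; three in four hits are not shown here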
# Target sequence (Q9HCT0 whole entry, looked up): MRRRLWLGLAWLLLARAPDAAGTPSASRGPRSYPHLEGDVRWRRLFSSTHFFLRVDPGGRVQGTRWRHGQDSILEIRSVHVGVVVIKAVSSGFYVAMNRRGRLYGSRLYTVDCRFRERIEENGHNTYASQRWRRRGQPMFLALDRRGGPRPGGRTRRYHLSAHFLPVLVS
# rRNA inh HTS OD600 – second read-out of rRNA inh HTS, no call of its own (marks repeat the call); OD600 change, %; measured here: OD600 growth;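 optical density of the mix in the first replicate; 0 = DMSO median and -100 = no signal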
# rRNA inh HTS RFP – second read-out of rRNA inh HTS, no call of its own (marks repeat the call); RFP signal change, %; measured here: RFP humanized mutant strains;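 first replicate; 0 = DMSO median and -100 = no signal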
# * hit, by the source's call; i = inactive; ? = inconclusive; . = no result given.
SMILES,rRNA inh HTS,rRNA inh HTS OD600,rRNA inh HTS RFP,Beta cell apopt,AF4-AF9 inh,ALR inh,T cruzi inh,RanGTP-Imp inh,Calb FLC,FGF22 binding
COc1ccc2c(c1O)[C@]13CCN(C)[C@H](C2)[C@@H]1CCC(=O)C3,10,8,-1.4,-6,-17,.,-2,-3.1,1,i
CCOC(=O)c1cc(C)n(CCc2cnc[nH]2)c1C,.,.,.,.,.,-29,16,-6.4,-9,.
COc1ccc(-c2nn(CCC#N)cc2C(=O)Nc2ccc(C(C)=O)cc2)cc1,-4,2,0.3,-1,6.1,-2,3,?,6,i
CC1(C)CN=C(Nc2ccccc2C(F)(F)F)S1,.,.,.,-5,.,-24,-13,-3.3,-25,.
FC(F)(F)c1ccc2c(c1)NP(=S)(N1CCOCC1)c1nccn1-2 (configuration not stated),8,7,3.3,-4,3.4,-14,9,2.8,5,i
CCN1CCC(NCC2CCCCC2)CC1,16,7,4.9,-6,0.6,-6,4,1.7,0,i
O=C(Nc1nccs1)c1c(O)c2c(n(Cc3ccco3)c1=O)CCCC2,.,.,.,-1,-1.9,.,11,3.6,-4,i
Cc1ccsc1C(=O)C1CCCN(Cc2cnc(N(C)C)s2)C1 (configuration not stated),.,.,.,1,.,2,59*,-3.3,-5,.
O=S1(=O)CC2(N3CCOCC3)CCCCCCC21 (configuration not stated),8,1,-9.0,-5,-3.3,0,-19,?,7,i
Cc1cccc(NC(=O)N2C[C@H]3C[C@@H](C2)c2cccc(=O)n2C3)c1,9,11,0.6,0,-1.9,-5,-11,1.2,2,i
Nc1c2c(nc3ccccc13)CCN(Cc1ccccc1)C2,19,10,-5.2,4,1.2,-8,50,-22,2,i
CCOC(=O)c1ccccc1NC(=O)c1c(O)[nH]c(=O)[nH]c1=O,.,.,.,-2,.,14,-8,1.6,-5,.
O=C1CC(=O)N(c2cccc(C(F)(F)F)c2)C(=O)N1,15,14,-0.1,-8,-0.9,1,2,5.0,3,i
Fc1ccc(Cn2nnnc2C(c2ccc(F)cc2)N2CC=C(c3ccc(F)cc3)CC2)cc1 (configuration not stated),2,9,3.1,-6,-1.2,-3,44,-0.9,-14,i
COc1ccc(/C=C/C(=O)c2c(O)n(CCC3=CCCCC3)c(=O)[nH]c2=O)cc1,15,5,2.8,-5,4.7,1,-8,5.6,-2,i
CN(C/N=C(\N)N[N+](=O)[O-])S(=O)(=O)c1ccccc1,13,5,5.4,-3,0.0,-3,-8,1.4,-7,i
O=C1NC(c2cc3ccccc3nc2Cl)Nc2ccccc21 (configuration not stated),24,16,6.5,0,-2.4,-2,-6,7.1,7,i
CN(C)CCN=Cc1c(O)n(Cc2ccco2)c(=O)[nH]c1=O,.,.,.,-2,.,-6,-3,-0.9,-7,.
COc1ccc(OC)c(NC(=O)N2C[C@H]3C[C@@H](C2)c2cccc(=O)n2C3)c1,-5,8,-0.2,4,-5.4,-4,6,3.3,-4,i
CNC(=O)O/N=C/c1nn(C(=O)C(C)(C)C)cc1Br,-13,-4,5.3,-8,-1.1,0,-2,-3.9,2,i
CCNc1ccc(P(=S)(N(C)C)N(C)C)cc1,-3,-10,-0.6,7,1.5,99*,4,4.6,-1,i
CN1CCN(c2ccc(/C=C3\C(=O)NC(=S)N(c4cccc(Br)c4)C3=O)o2)CC1,.,.,.,.,.,3,-1,-7.2,12,.
Fc1ccccc1CNC1CN2CCC1CC2 (configuration not stated),24,21,0.2,-11,-4.2,.,-8,-0.9,-1,i
C=C1C2C[C@@]3([C@@H]1O)[C@@H](C[C@@H]2O)[C@@]12C4[C@@H]3C[C@@H]1[C@@](C)(CC[C@@H]2O)CN4CC,4,4,0.2,-3,6.8,-11,.,.,.,i
C[C@H]1OC[C@@H](C[N+](C)(C)C)O1,7,7,0.9,-4,-3.6,-6,-5,3.5,.,i
CCOc1cc(/C=C2\C(=O)NC(=O)N(CCc3ccc(F)cc3)C2=O)ccc1O,4,4,3.0,-1,0.8,-6,-14,1.0,1,i
COc1cc(/C=C2\C(=O)NC(=O)N(CCc3ccc(F)cc3)C2=O)ccc1O,7,0,1.7,-3,-1.4,45,-2,-3.2,34,i
COC(=O)C1=C(c2ccc(OC(F)(F)F)cc2)C[C@@H]2CC[C@H]1N2C(=O)N1CCOCC1,4,10,-0.8,-6,-6.6,2,.,.,.,i
O=[N+]([O-])c1ccc(C2C3C(c4ccccc4)=NC4(CCCCC4)N32)cc1 (configuration not stated),.,.,.,0,.,-12,8,4.0,-30,.
COc1ccc(CN2CC3CC(C2)c2cccc(=O)n2C3)cc1OC (configuration not stated),.,.,.,-4,-3.9,7,4,-4.5,-6,.
Cn1c(O)c(C(=O)c2ccccc2)c(=O)n(C)c1=O,.,.,.,-1,.,46,-1,-2.3,-2,.
O=c1[nH]c(=S)n(C2CC2)c(O)c1C=NCC1CCCO1 (configuration not stated),5,5,2.1,-7,-3.1,-2,-18,1.7,-4,i
CCc1ccc(C(=O)C23CN4CN(CN(C4)C2)C3)cc1,.,.,.,-2,.,-3,-6,-1.6,-7,.
CCN1CCN(Cc2ccc(C)cc2C)CC1,.,.,.,-2,.,-10,25,4.0,-12,.
C[C@H]1CCC[C@@H](O)CCC/C=C/c2cc(O)cc(O)c2C(=O)O1,.,.,.,-11,.,12,-15,-0.3,-10,.
N#CCCn1cc(C(=O)Nc2ccc(F)cc2)c(-c2ccc([N+](=O)[O-])cc2)n1,1,4,-1.3,-9,-0.7,-6,6,3.0,-3,i
Cc1cccc(C)c1NC(=O)CN(C)CC(=O)Nc1ccc(C#N)c(Cl)c1,.,.,.,3,.,-15,-6,-5.3,-2,.
CCCCCCN1CCN(c2ccc(Cl)cc2)CC1,-6,-11,-1.6,7,0.7,47,10,?,-34,i
O=c1[nH]c(=S)n(C2CC2)c(O)c1C=Nc1ccc2c(c1)OCO2,21,3,1.3,.,.,-30,-18,-2.9,0,i
COc1ccc(/C=C/C2=CCN(C)CC2)cc1,10,11,1.8,-5,3.8,-18,21,-2.2,-4,i
CCOC(=O)C1=C(C)OC(N)=C(C(=O)OC)C12C(=O)Nc1ccc(Br)cc12 (configuration not stated),.,.,.,-15,.,20,-6,1.0,19,.
C[C@H]1O[C@@H](OC2CC[C@]3(C=O)[C@H]4CC[C@]5(C)[C@@H](C6=CC(=O)OC6)CC[C@]5(O)[C@@H]4CC[C@]3(O)C2)CC2OC(C)(C)OC21 (some centres not stated),4,10,0.4,-2,3.2,-8,-9,1.5,0,i
O=c1[nH]c(=S)n(-c2cccc(Cl)c2)c(O)c1C=NCCN1CCNCC1,5,13,-1.6,0,1.9,-39,-6,-0.8,3,i
COc1ccc(/C=C/C(=O)NC(=S)N2C[C@H]3C[C@H](C2)c2cccc(=O)n2C3)cc1,.,.,.,-6,-3.1,13,1,1.7,2,i
CCOC(=O)C1C(=O)NC2(C)CC1c1cc(OC)ccc1O2 (configuration not stated),.,.,.,0,.,-14,-3,-3.5,-8,.
Cc1ccnc(-n2c(C)cc(C=C3C(=O)N(C)C(=S)N(C)C3=O)c2C)c1,.,.,.,-7,.,28,7,6.4,1,.
CN(C)C(=O)Oc1ccnc2cc(Cl)ccc12,0,-7,-2.8,-2,2.1,8,-4,-0.7,-6,i
O=C1C2CCCN2C(c2cccnc2)N1c1nccs1 (configuration not stated),.,.,.,-1,.,0,1,0.6,-4,.
COc1ccc(CC(=O)N2C[C@H]3C[C@@H](C2)c2cccc(=O)n2C3)cc1,.,.,.,.,-1.5,-17,?,6.1,0,i
Cc1ccc(OCCn2cccc2/C=C2/C(=O)NC(=O)N(Cc3ccco3)C2=O)cc1,11,10,3.2,2,-4.8,51,1,2.6,4,i
O=C(Cn1c2c(c(-c3ccccc3Cl)cc1=O)CCC2)N1CCC2(CC1)OCCO2,.,.,.,3,.,-18,-3,6.0,-6,.
O=C(C[N+]12CCC(CC1)C(CO)C2)c1ccc(Br)cc1 (configuration not stated),11,12,-1.4,-5,5.1,-31,3,-0.8,-10,i
CC1(C)OC(c2ccccc2)=C/C(=C/C=C2C(=O)NC(=S)NC2=O)O1,60,22,11,-11,3.0,88*,4,-18,-1,i
CCN1CCN(c2ccc(N)cc2C)CC1,17,10,3.1,5,43*,99*,3,-6.4,1,i
COC(=O)C1=C(c2ccc(OC(F)(F)F)cc2)C[C@@H]2CC[C@H]1N2C(=O)N1CCC(O)CC1,2,-5,2.4,1,5.8,-2,.,.,.,i
CCC(=NCc1ccco1)c1c(O)[nH]c(=O)[nH]c1=O,.,.,.,-5,.,-4,-10,-0.3,6,.
Cc1[nH]c2c(C(F)(F)F)cccc2c1CCN,.,.,.,-5,.,-5,-17,1.9,2,.
Cc1ccc(S(=O)(=O)N2CCC(C(=O)N3CCC4(CC3)OCCO4)CC2)cc1,.,.,.,4,.,-3,6,0.3,-3,.
Cn1c(O)c(C=NC2CCN(Cc3ccccc3)CC2)c(=O)n(C)c1=O,20,12,-4.7,0,-4.7,-7,44,2.0,-8,i
ClCCN1CCN(c2ccnc3cc(Cl)ccc23)CC1,14,6,5.0,-1,21,-8,9,1.6,-4,i

# An excerpt from above, limited to rRNA inh HTS and ALR inh.
Structure,rRNA inh HTS,ALR inh
COc1ccc(CC(=O)N2C[C@H]3C[C@@H](C2)c2cccc(=O)n2C3)cc1,.,-17
CCC(=NCc1ccco1)c1c(O)[nH]c(=O)[nH]c1=O,.,-4

# Continuation:
SMILES,rRNA inh HTS,rRNA inh HTS OD600,rRNA inh HTS RFP,Beta cell apopt,AF4-AF9 inh,ALR inh,T cruzi inh,RanGTP-Imp inh,Calb FLC,FGF22 binding
CC(C(=O)c1c[nH]c2ccccc12)N1CCc2ccccc2C1 (configuration not stated),.,.,.,-4,.,-17,16,1.8,-24,.
Fc1cccc(CNCCc2c[nH]c3ccccc23)c1,7,4,3.6,-4,5.8,52,4,2.3,-4,i
CCC1C2Cn3c(nc4ccccc43)C1N(C)O2 (configuration not stated),9,15,-1.0,3,-3.5,-3,0,-1.6,6,i
Cc1ccc(N)c(C(=O)c2ccc(Br)cc2)c1,-6,1,-1.4,2,6.9,-20,-25,4.0,-48,i
Cc1cc(OC(C)C(=O)NCc2ccncc2)c2c3c(c(=O)oc2c1)CCCC3 (configuration not stated),0,1,2.3,9,-3.0,-6,-16,0.2,-3,i
N#CC(C#N)=Cc1ccc(-c2ccccc2)o1,.,.,.,-3,.,-5,-27,-103,?,.
CC(=NCCC1=CCCCC1)c1c(O)n(C)c(=O)n(C)c1=O,.,.,.,0,.,-5,-2,-0.6,7,.

# A portion of the library; count on the stated rates, not on these rows.
